Screening data: PubChem, several laboratories
Arbovirus anti: arbovirus infection inhibition; arbovirus infection cell-based antiviral screen; inhibition, % at 10 µM; actives 0.37% (n = 200,000);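 active = inhibition from about 30%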;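 also: bluetongue infection of BSR cells; cell survival read as ATP light after 72 h; 0% = infected wells without compound and 100% = uninfected wells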
Mtb H37Rv: M. tuberculosis H37Rv growth inhibitors, H37Rv strain (AID 1626) | actives 0.95% (n = 220,000) | one-dose inhibition, % at 10 µM; IC50 in µM for titrated hits | M. tuberculosis H37Rv growth inhibition; higher % means a stronger effect;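 active = confirmed in a dose series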;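 also: bacteria incubated seven days before Alamar blue readout; 0% = bacteria only wells and 100% = bacteria with antibiotic wells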
Mtb betalactam: beta-lactam sensitization of Mtb H37Rv; M. tuberculosis H37Rv growth with meropenem, percent inhibition; hits of this screen are not shown here; inhibition, % at 25 µM; actives 0.27% (n = 330,000);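 active = about 74% or more and at least 40 points above the plate without the antibiotic, then above 30% in a dose series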;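 also: growth measured after seven days incubation then overnight dye step; 0% = bacteria only wells and 100% = bacteria with antibiotic; twin plates without the antibiotic show which effects depend on it; some results filed as inactive read as strong as hits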
RecA intein inh: Mtb RecA intein splicing inhibition; actives 0.75% (n = 290,000); cell-free RecA intein splicing, fluorescence; P9WHJ3; inhibition, %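 (about 9 µM by stock and volumes)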; in the data active = inhibition above about 30%;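 also: 0% = vehicle wells and 100% = reference inhibitor control wells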
Target sequence (P9WHJ3 whole entry, looked up): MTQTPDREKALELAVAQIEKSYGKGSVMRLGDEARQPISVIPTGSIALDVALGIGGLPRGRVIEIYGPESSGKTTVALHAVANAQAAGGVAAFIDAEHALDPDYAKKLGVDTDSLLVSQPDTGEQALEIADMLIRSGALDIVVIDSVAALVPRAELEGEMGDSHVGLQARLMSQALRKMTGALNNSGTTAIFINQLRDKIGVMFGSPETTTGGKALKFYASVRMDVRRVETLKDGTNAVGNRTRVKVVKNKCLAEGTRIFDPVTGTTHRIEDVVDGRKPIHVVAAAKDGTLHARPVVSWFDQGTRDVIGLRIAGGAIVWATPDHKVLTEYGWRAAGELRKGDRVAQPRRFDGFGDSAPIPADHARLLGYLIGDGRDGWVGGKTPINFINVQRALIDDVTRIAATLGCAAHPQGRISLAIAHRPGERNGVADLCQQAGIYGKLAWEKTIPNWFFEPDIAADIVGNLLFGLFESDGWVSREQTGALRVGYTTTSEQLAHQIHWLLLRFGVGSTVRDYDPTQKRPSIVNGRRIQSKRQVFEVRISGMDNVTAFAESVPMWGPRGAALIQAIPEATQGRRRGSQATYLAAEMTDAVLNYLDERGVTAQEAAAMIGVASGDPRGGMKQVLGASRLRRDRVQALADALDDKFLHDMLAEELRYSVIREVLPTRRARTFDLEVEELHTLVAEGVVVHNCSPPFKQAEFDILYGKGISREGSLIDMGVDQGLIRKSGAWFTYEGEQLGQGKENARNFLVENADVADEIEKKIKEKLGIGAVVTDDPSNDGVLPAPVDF
YopH inh: YopH (Yersinia) phosphatase inhibition. fluorescence Ex485/Em525. inhibition, %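 (about 10 µM by stock and volumes)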. actives 0.16% (n = 140,000);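 active = inhibition of 50% or more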;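 also: controls were vehicle for no effect and minimum signal wells for full effect; inactives centre near -20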
Arbovirus anti repeat: further read-out of Arbovirus anti, marked with its call; inhibition, %; measured here: 10K subset replicate screen; many hits read low in the repeat;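 first of two repeat runs on a subset; 0% = infected and 100% = uninfected wells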
An asterisk follows results filed as active; . = no result given. This is a subset, so the mix of outcomes need not match the whole.

SMILES	Arbovirus anti	Mtb H37Rv	Mtb betalactam	RecA intein inh	YopH inh	others
CCOC(=O)C(CC)Sc1nc2c(c(=O)[nH]c(=O)n2C)n1CCc1ccccc1 (stereo not given)	4	-1%	-4	-0.8	-22
C=CCNC(=O)/C(C#N)=C/c1cc(Br)ccc1OC	-2	0%	3	-2.0	.
Cc1cc(C)n(-c2nc3ccccc3c(=O)n2OCC#N)n1	.	.	87	2.1	.
CCN(CC)c1ccc(/C=N/N2CCN(c3ccccc3OC)CC2)cc1	.	.	-27	0.0	.
CCN(CC)c1ccc(N=Cc2c(O)n(-c3ccc(Cl)cc3)c(=O)[nH]c2=O)cc1	-8	12%	.	-11	-38
O=C(O)COc1ccc(NC(=O)c2cccs2)cc1	2	-11%	6	0.2	-33
Cc1ccc(NC(=O)/C(=C\c2ccco2)NC(=O)c2ccco2)cc1	.	.	3	2.3	.
NC12CC3CC(C1)CC(CC(=O)O)(C3)C2	3	4%	3	0.8	.
O=C(CC1Oc2ccccc2NC1=O)NCCCN1CCN(C2CCCCC2)CC1 (stereo not given)	.	-7%	-2	.	-6
COc1cc(C2=NOC(C(=O)NCc3cccnc3)C2)cc(OC)c1OC (stereo not given)	.	.	-3	-1.0	.
COc1ccccc1NC(=O)CCC(=O)N(Cc1ccc(OC)c(OC)c1)c1nccs1	2	-1%	-4	-2.9	.
O=[n+]1cc(-c2cc3ccccc3o2)n([O-])c2c1CCCC2	.	2%	-5	-16	.

The list goes on, starting with the last 7 of the part before.
SMILES	Arbovirus anti	Mtb H37Rv	Mtb betalactam	RecA intein inh	YopH inh	others
O=C(O)COc1ccc(NC(=O)c2cccs2)cc1	2	-11%	6	0.2	-33
Cc1ccc(NC(=O)/C(=C\c2ccco2)NC(=O)c2ccco2)cc1	.	.	3	2.3	.
NC12CC3CC(C1)CC(CC(=O)O)(C3)C2	3	4%	3	0.8	.
O=C(CC1Oc2ccccc2NC1=O)NCCCN1CCN(C2CCCCC2)CC1 (stereo not given)	.	-7%	-2	.	-6
COc1cc(C2=NOC(C(=O)NCc3cccnc3)C2)cc(OC)c1OC (stereo not given)	.	.	-3	-1.0	.
COc1ccccc1NC(=O)CCC(=O)N(Cc1ccc(OC)c(OC)c1)c1nccs1	2	-1%	-4	-2.9	.
O=[n+]1cc(-c2cc3ccccc3o2)n([O-])c2c1CCCC2	.	2%	-5	-16	.
O=C(CCSc1nnnn1-c1ccccc1)N1CCOCC1	4	-4%	1	3.3	44
Cc1cccc(C)c1NC(=O)CSc1ccc([N+](=O)[O-])cn1	-4	4%	-5	0.2	-19
CC(=O)N1CCc2cc(S(=O)(=O)CCC(=O)Nc3cccc(F)c3)ccc21	1	-5%	-11	.	-6
CN(C(=O)CCc1nc(-c2ccccc2F)no1)c1ccccc1	-2	-1%	5	2.7	.
CCCn1c(SCC(=O)c2ccc3c(c2)OCCO3)nnc1C(C)C	7	3%	1	0.8	-51
CCOC(=O)CC(NC(=O)c1ccco1)c1ccccc1Cl (stereo not given)	-8	5%	-2	-0.1	-46
COc1cccc(N2C(=O)C3CCCN3C2=S)c1 (stereo not given)	.	.	0	1.2	.
O=S(=O)(c1ccc(Cl)s1)N1CCN(CCc2ccccc2)CC1	.	.	13	0.4	.
O=C(NNC(=O)c1ccccc1O)c1ccc(-c2ccc([N+](=O)[O-])cc2)o1	.	.	1	-1.1	.
CCCCNC(=S)N1CCC(Cc2ccccc2)CC1	.	.	8	5.9	.
CC(Nc1nc(-c2ccc(Cl)cc2)cs1)c1nc2cc(Cl)c(N3CCCCC3)cc2n1CCOCCO (stereo not given)	.	44%	99	3.4	.
Cc1ccc(C2CC2C(=O)NNC(=S)Nc2ccc(Cl)cc2)cc1 (stereo not given)	14	-6%	-3	8.0	-30

The final 4 entries of the section before lead into the next.
SMILES	Arbovirus anti	Mtb H37Rv	Mtb betalactam	RecA intein inh	YopH inh	others
O=C(NNC(=O)c1ccccc1O)c1ccc(-c2ccc([N+](=O)[O-])cc2)o1	.	.	1	-1.1	.
CCCCNC(=S)N1CCC(Cc2ccccc2)CC1	.	.	8	5.9	.
CC(Nc1nc(-c2ccc(Cl)cc2)cs1)c1nc2cc(Cl)c(N3CCCCC3)cc2n1CCOCCO (stereo not given)	.	44%	99	3.4	.
Cc1ccc(C2CC2C(=O)NNC(=S)Nc2ccc(Cl)cc2)cc1 (stereo not given)	14	-6%	-3	8.0	-30
Fc1ccc2nc(Nc3ccccc3)sc2c1	2	-4%	-4	-1.3	.
COc1ccccc1C(=O)Nc1ccc(N2CCCCC2)cc1	6	15%	74	-1.8	5
COc1cccc(/C=N/NC(=O)C(=O)N/N=C/c2cccc(OC)c2OC)c1OC	-5	-8%	5	-0.4	-41
Cc1ccc(C(=O)NC2=NCCS2)cc1Cl	.	.	-1	-0.7	.
CC(NS(=O)(=O)c1ccccc1)C(=O)NCCc1ccccn1 (stereo not given)	1	-1%	5	-1.6	.
COc1ccccc1OS(=O)(=O)c1ccc(NC(C)=O)cc1	3	8%	5	0.4	.
NC(=S)N/N=C/c1cn(-c2ccccc2)nc1-c1cccnc1	.	2%	-8	0.0	.
CCC(C)NCCCCOc1ccc(Cl)cc1C (stereo not given)	-30	4%	0	3.3	-9
COc1cc(C(=O)NCC2CCCO2)ccc1OCc1ccc(Cl)cc1Cl (stereo not given)	.	.	50	3.7	.
Cc1cc(/C([O-])=C(/C(=S)Nc2ccc(F)cc2)[n+]2ccccc2)c(C)n1Cc1ccccc1Cl	5	8%	2	0.0	.
Cc1ccc(C(=O)Nc2ccc3ccccc3n2)cc1	.	.	-1	3.7	.
O=C(NCc1ccccc1Cl)c1ccc(NC2=NC3CS(=O)(=O)CC3S2)cc1 (stereo not given)	.	.	7	-0.4	.
COc1cc2c(cc1NC(=O)COc1ccccc1OC)oc1ccccc12	4	0%	6	-0.6	-45
CCOC(=O)CSc1nc(-c2ccccc2)nc2c1oc1ccccc12	-4	11%	66	0.3	-8
COc1ccccc1NC(=O)CCCC(=O)OCC(F)(F)C(F)F	1	-6%	9	-1.8	-20
O=C(N/N=C/C=C/c1ccccc1)NC1CCCCC1	1	13%	9	0.1	.
CC(=O)c1c(C)n(Cc2ccccc2)c2ccc(O)cc12	.	34%	59	0.1	.
CC(CC(=O)O)CC1=NS(=O)(=O)c2ccccc2N1 (stereo not given)	-1	-3%	0	.	-48
COc1cccc(OCCNCc2ccccc2)c1	.	.	-3	-3.0	.
O=C(ON=C1CCN(S(=O)(=O)c2ccccc2)CC1)c1ccccc1	0	-12%	4	-7.3	-38
COc1ccc(C(=O)NCCc2nnc(SCC(=O)Nc3ccccc3)n2C)cc1	5	-3%	-7	-5.5	30
Cc1cc(C)c(NC(=O)C2CC3CCC2C3)c(C)c1 (stereo not given)	.	.	98	3.1	.
CCCCn1c(N)c(N(CCOC)C(=O)CSc2nc3ccc(C)cc3[nH]2)c(=O)[nH]c1=O	3	0%	-4	-9.4	-53
O=C(NNS(=O)(=O)c1ccccc1)c1ccc([N+](=O)[O-])cc1	.	.	-4	-4.4	.
C/C(=N\NC(=O)C1CC1(C)c1ccccc1)c1ccco1 (stereo not given)	-1	6%	6	2.6	-27
CCCCCCCNC(=O)CC(NS(=O)(=O)c1ccc(NC(C)=O)cc1)C(C)C (stereo not given)	-5	-2%	1	1.5	-30
CC(=O)Nc1ccc2nc(NC(=O)COc3ccccc3)sc2c1	4	3%	-7	-1.0	.
COc1ccc(S(=O)(=O)N2CCCC(C(=O)NCc3ccccn3)C2)cc1Cl (stereo not given)	6	10%	-4	2.8	17
CCc1cc2cc(OC)ccc2nc1SCC(=O)Nc1cc(OC)c(OC)cc1C(=O)O	10	-9%	5	7.6	.
Cn1c(SCc2ccccc2C#N)nc2ccccc2c1=O	.	.	7	0.3	.
COc1ccc(CCNC(=O)c2ccc(CS(=O)(=O)Cc3cccc(C)c3)o2)cc1OC	.	.	4	1.4	.
COc1cc(/C=C2\SC(=S)N(NC(=O)c3ccccc3OC)C2=O)ccc1O	.	.	8	-4.9	.
CC1(C)CC2(CCO1)OC(=O)CC2C(=O)Nc1cccc2ccccc12 (stereo not given)	3	-7%	0	1.6	3
CC1CCN(CCC(=O)Nc2nccs2)CC1	.	-1%	-4	-1.1	.
CC(C)c1nc2ccc(Br)cn2c1NC1CCCC1	14	5%	-1	-2.2	.
O=C(Nc1ccccc1)c1ccc(S(=O)(=O)NCc2cccnc2)cc1	.	.	-4	1.4	.
Cc1ccc(C)c(OCCCC(=O)Nc2ccccc2C(N)=O)c1	-19	16%	-3	1.1	.
C/C=C(/C)C(=O)O[C@@H]1c2c(ccc3ccc(=O)oc23)O[C@@H]1C(C)(C)OC(C)=O	6	1%	-3	0.2	-31
Cc1csc2ncnc(N3CCN(C(=S)Nc4ccc(C(F)(F)F)cc4)CC3)c12	.	-18%	-2	10	.
CC1(C)CC(=O)C=C(N2CCNCC2)C1	-3	-11%	0	-1.0	-46
CCOC(=O)c1cnc(C(C)(C)C)[nH]c1=O	6	2%	1	-1.8	-37
COc1cc(NC(=S)N2CCCC(C)C2)cc(OC)c1OC (stereo not given)	0	-2%	0	-5.3	.
CCN1C(=O)CC(NC2CCN(C(=O)c3ccc(F)cc3)CC2)C1=O (stereo not given)	.	.	3	0.8	.
CCNc1cc(Nc2c(C)n(C)n(-c3ccccc3)c2=O)c([N+](=O)[O-])c2nonc12	.	-6%	-7	5.6	.
Cc1c(C(N)=O)c(-c2ccccc2)nn1-c1ccccc1	4	3%	-2	-7.3	-14
c1ccc(-c2nnc(SCc3nc4ccccc4[nH]3)o2)cc1	13	1%	10	0.7	-2	Arbovirus anti repeat=13
CCCCSCCCNC(=O)Nc1cccc(OC)c1	-2	5%	-3	3.1	-3
COC(=O)c1ccccc1NC(=O)CSc1nnc(-c2cccc(NC(C)=O)c2)n1C	0	-17%	-7	-3.3	-39
O=C(O)c1ccc2nc(C(F)(F)F)[nH]c2c1	8	-17%	2	.	-29
C/C=C/c1ccc(OCCn2nnc3ccccc32)c(OC)c1	.	.	55	4.0	.
CCOC(=O)C1CCCN(C(=O)c2cnn3c(C(F)F)cc(-c4ccc(C)cc4)nc23)C1 (stereo not given)	1	14%	6	-18	-26
CC1=C(C(=O)Nc2ccccn2)C(c2ccc(Br)cc2)n2ncnc2N1 (stereo not given)	5	-1%	4	-5.5	3
Cc1nn(-c2ccccc2)c(C)c1-c1nnc(-c2c(C)nn(-c3ccccc3)c2C)o1	.	-6%	25	-1.0	.
N#Cc1c2n(c3c(=O)[nH]cnc13)CCCC2	1	-4%	-3	-1.9	3
Cc1ccc2nc(Cl)c(CN(Cc3cccs3)C(=O)C3CC3)cc2c1	-6	-1%	5	6.5	-46
CCOC(=O)C1=C(C)N=c2s/c(=C/c3cccc(OCC(=O)O)c3)c(=O)n2C1c1ccc(F)cc1 (stereo not given)	.	.	9	-2.1	.
CCOc1cc(C#N)c(NC(=O)c2ccnn2C)cc1OCC	2	12%	-2	-3.1	-28	Arbovirus anti repeat=-3
N#C/C(=C/c1ccc2c(c1)OCO2)C(=O)Nc1ccc(O)cc1	-9	6%	-9	59*	.
Cc1c(Cl)cccc1NC(=O)CNc1cccc(C(F)(F)F)c1	11	-3%	2	2.0	-10
Cn1nnnc1SCC(=O)Nc1ccccc1-c1ccccc1	-11	36%	26	-6.4	-28	Arbovirus anti repeat=-5

The list continues:
SMILES	Arbovirus anti	Mtb H37Rv	Mtb betalactam	RecA intein inh	YopH inh	others
CCOC(=O)c1c(C=O)c2ccccc2n1Cc1ccccc1F	.	.	1	3.8	.
O=[N+]([O-])c1ccc(N2CCNCC2)c2ncccc12	-9	.	.	1.3	-28
CCN(CC)c1nc(-c2nn[nH]n2)nc(N(CC)CC)n1	8	-3%	-9	-0.2	-45
CC(=O)c1ccc(NC(=O)C(NC(=O)c2ccccc2)=C(C)C)cc1	-4	-5%	-1	0.8	.
CCNS(=O)(=O)c1ccc(CCC(=O)Nc2ccccc2C(=O)OC)cc1	-4	5%	3	0.8	-20
CCSc1ncnc2sc(C)c(C)c12	5	-1%	-7	0.3	-7
CC(C)C12CN3CCN(CC(C3)/C1=N\NC(=O)Nc1ccccc1)C2	4	6%	9	4.4	-38
CCOC(=O)Nc1ccc2c(c1)nc(CN1CCN(C(C)=O)CC1)n2C	1	-6%	2	-0.5	-5
Cc1ccc(/C=C2\SC(=O)N(CCNC(=O)C3CSC4(C)CCC(=O)N34)C2=O)cc1 (stereo not given)	.	.	-10	0.9	.
O=C(c1nc2ccccn2c1CNCCOc1cccnc1)N1CCOCC1	2	-1%	1	1.1	.
CCOc1ccccc1-n1c(SCC(=O)N2CCCc3ccccc32)nnc1-c1cccnc1	-5	12%	0	1.0	-13
CCCOc1ccc(C(=O)N2CCCc3ccccc32)cc1	-8	1%	14	0.5	-1
N#Cc1cncc(C#Cc2ccccc2)c1	.	.	5	-0.1	.
CCOC(=O)C/C(C)=N/NC(=O)Nc1ccccc1	0	-7%	-2	7.2	-37
Cc1ccc(-c2nn(CCC(=O)Nc3cccnc3)c(=O)c3ccccc23)cc1	.	3%	-7	4.4	.
